Mtb betalactam = beta-lactam sensitization of Mtb H37Rv, H37Rv. 330,000 compounds, 0.27% hits. AID 434955, 2010. inhibition, % at 25 µM. M. tuberculosis H37Rv growth with meropenem, percent inhibition; hits of this screen are not shown here;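 active means about 74% or more and at least 40 points above the plate without the antibiotic, then above 30% in a dose series; inconclusive means first-round hits that could not be retested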;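 further: growth measured after seven days incubation then overnight dye step; 0% = bacteria only wells and 100% = bacteria with antibiotic; twin plates without the antibiotic show which effects depend on it; some results filed as inactive read as strong as hits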
The depositor's hits bear a star; ? = inconclusive.

SMILES | Mtb betalactam
COc1cc(OC)cc(-c2c(-c3cccs3)c3cc(-c4cc(OC)c(OC)c(OC)c4)ccc3n2C)c1 | -1.6
O=C(COC(=O)c1cccc(Cl)c1)NC1CCS(=O)(=O)C1 (stereo not given) | -5.8
O=C(Nc1cccc(S(=O)(=O)N2CCCCC2)c1)C1COc2ccccc2O1 (stereo not given) | 3.2
Cc1cccc(C(=O)OCC(=O)NC(C)C2CC3CCC2C3)c1O (stereo not given) | 5.2
CC(C)(C)c1ccc(C(=O)CCC(=O)NCc2ccccc2)cc1 | 12.4
O=C(NC(=S)NCc1ccco1)c1ccc([N+](=O)[O-])cc1 | 8.1
COc1cc(C(=O)NNC(=O)c2n[nH]c3ccccc23)cc(OC)c1OC | -6.0
CN(CC(=O)Nc1ccc(F)cc1)C(=O)COC(=O)c1ccc(=O)n(Cc2ccccc2)n1 | -3.5
COc1ccc(N(CC(=O)NCc2ccco2)C(=O)CCC(=O)Nc2nccs2)cc1 | 3.5
O=C(COc1cccnc1[N+](=O)[O-])Nc1ccc(Cl)cc1F | 0.8
Cc1ccc(C(=O)NC2CC(C)(C)NC(C)(C)C2)cc1 | -1.3
CC(=O)c1ccc([N+](=O)[O-])cc1 | -5.1
C[C@H](CCCC/C=C/C(=O)O)O[C@@H]1O[C@@H](C)[C@H](O)C[C@H]1O | 10.4
CCOc1ccc(C(=O)Nc2ncn[nH]2)cc1 | 1.5
Cc1ccc(S(=O)(=O)CCC(=O)OC(C)C(=O)Nc2ccc(N3CCOCC3)cc2)cc1 (stereo not given) | -9.5
O=C(c1ccco1)N1CCN(C(=O)c2ccccc2OCc2ccccc2)CC1 | 8.3
CCc1cc(=O)oc2c(C)c(OC(C)C(=O)N3CCC[C@@H]3C(=O)O)ccc12 (stereo not given in full) | 0.9
Nc1nonc1-n1nnc(C(=O)N/N=C/c2cccc(Cl)c2Cl)c1CN1CCCC1 | -7.6
CCN1CCN(CC(=O)Nc2cc(S(=O)(=O)N3CCCCC3)ccc2Cl)CC1 | 6.4
CC(=O)c1sc(NCc2ccc(C)cc2)nc1C | 6.1
C[C@@H](C(=O)OCC(=O)c1ccccc1)N1C(=O)C2CCCCC2C1=O (stereo not given in full) | 8.8
COc1ccc(-c2sc3ccc(OC)cc3c2-c2ccc(OC)c(F)c2)cc1 | 25.1
COc1ccc(NC(=O)CC2CC3CCC2C3)cc1S(=O)(=O)N1CCOCC1 (stereo not given) | 1.6
O=C(Oc1ccc(Cl)c(Cl)c1)C1=CC=CN2CCS(=O)(=O)N=C12 | -0.2
C=CC[C@H](CC(=O)NCCO)C(=O)N[C@H](COC(=O)[C@@H](CC=C)Cc1ccc(F)cc1)C(C)(C)C | -1.6

A draw from above in order of molar mass, smallest number first.
SMILES | Mtb betalactam
CCOc1ccc(C(=O)Nc2ncn[nH]2)cc1 | 1.5
CC(=O)c1sc(NCc2ccc(C)cc2)nc1C | 6.1
Cc1ccc(C(=O)NC2CC(C)(C)NC(C)(C)C2)cc1 | -1.3
C[C@H](CCCC/C=C/C(=O)O)O[C@@H]1O[C@@H](C)[C@H](O)C[C@H]1O | 10.4
O=C(NC(=S)NCc1ccco1)c1ccc([N+](=O)[O-])cc1 | 8.1
CC(C)(C)c1ccc(C(=O)CCC(=O)NCc2ccccc2)cc1 | 12.4
O=C(COC(=O)c1cccc(Cl)c1)NC1CCS(=O)(=O)C1 (stereo not given) | -5.8
C[C@@H](C(=O)OCC(=O)c1ccccc1)N1C(=O)C2CCCCC2C1=O (stereo not given in full) | 8.8
COc1cc(C(=O)NNC(=O)c2n[nH]c3ccccc23)cc(OC)c1OC | -6.0
O=C(c1ccco1)N1CCN(C(=O)c2ccccc2OCc2ccccc2)CC1 | 8.3
COc1ccc(-c2sc3ccc(OC)cc3c2-c2ccc(OC)c(F)c2)cc1 | 25.1
COc1ccc(NC(=O)CC2CC3CCC2C3)cc1S(=O)(=O)N1CCOCC1 (stereo not given) | 1.6
CCN1CCN(CC(=O)Nc2cc(S(=O)(=O)N3CCCCC3)ccc2Cl)CC1 | 6.4
Nc1nonc1-n1nnc(C(=O)N/N=C/c2cccc(Cl)c2Cl)c1CN1CCCC1 | -7.6
C=CC[C@H](CC(=O)NCCO)C(=O)N[C@H](COC(=O)[C@@H](CC=C)Cc1ccc(F)cc1)C(C)(C)C | -1.6
COc1cc(OC)cc(-c2c(-c3cccs3)c3cc(-c4cc(OC)c(OC)c(OC)c4)ccc3n2C)c1 | -1.6

Following part
SMILES | Mtb betalactam
COc1cc(Cl)c(C)cc1NC(=O)COC(=O)C1CC1C (stereo not given) | -3.5
O=C(N[C@@H]1C/C=C\C[C@H](CC(=O)N(CCO)Cc2ccccc2)C(=O)NC[C@@H](c2ccccc2)OC1=O)OCC1c2ccccc2-c2ccccc21 | 3.6
Cc1ccc2nc3n(c(=O)c2c1)-c1ccc(Cl)cc1C(=O)NC3Cc1ccccc1 (stereo not given) | -3.8
CN(C)N=O | 4.2
COc1ccc(OC)c(NC(=O)CN2C(=O)NC3(CCCc4ccccc43)C2=O)c1 (stereo not given) | -3.5
CC1(c2ccccc2)NC(=O)N(CC(=O)NCC2CCCO2)C1=O (stereo not given) | 0.5
CC(=O)c1cccc([N+](=O)[O-])c1 | -8.0
C[C@H](CO)N1C[C@H](C)[C@@H](CN(C)S(C)(=O)=O)Oc2c(NC(=O)Cc3ccccc3)cccc2C1=O | -1.9
CC[C@@]1(C(=O)OC)N[C@H](CN(C)S(=O)(=O)c2ccc(C(F)(F)F)cc2)[C@@H]2C(=O)N(C)C(=O)[C@@H]21 | 3.3
Cc1cccc(C)c1NC(=O)CN(C)C(=O)C1CC1C (stereo not given) | 3.8
COc1ccc(S(=O)(=O)N2CCc3ccccc32)cc1C(=O)N1CCC(C)CC1 | 0.0
Cc1ccsc1CNCc1cc(Cl)ccc1O | -6.1
O=C(CN1C(=O)NC2(CCCC2)C1=O)Nc1nc(-c2ccccc2)cs1 | -3.2
C=CC[C@H](CC(=O)OC(C)(C)C)C(=O)OC[C@H]1CCCN1C(=O)[C@@H](CC=C)CC(=O)N(CCO)Cc1ccccc1 | 10.1
COc1ccc(-c2sc3ccc(N4CCOCC4)cc3c2-c2ccc(O)cc2)cc1 | 4.5
CC1CCc2sc(C(=O)N3CCC(C(N)=O)CC3)cc2C1 (stereo not given) | 4.3
Cc1cc(NC(=O)COC(=O)C2CSC3(C)CCC(=O)N23)ccc1Br (stereo not given) | -11.9
Cc1nc(SCC(=O)NNC(=O)c2ccc(F)cc2)c2ccccc2n1 | -6.9
Cc1cccc(NC(=O)c2nc[nH]c2C(=O)NC2CCN(C(=O)OC(C)(C)C)CC2)c1 | ?
CC1CC(C)CN(C(=O)CNC(=O)c2sc3ccccc3c2Cl)C1 (stereo not given) | 8.4
c1ccc(C[C@H]2CN=C(Nc3ccccc3)N2CCCC2CCCCC2)cc1 | 14.4
CCOC(=O)C1CCN(C(=O)COC(=O)/C=C/c2ccccc2)CC1 | 1.4
O=C(Nc1ccc(F)cc1F)c1cccc(S(=O)(=O)N2CCCCC2)c1 | -2.1
O=C(c1ccccc1Cc1ccccc1)N1CCN(S(=O)(=O)c2ccccc2F)CC1 | -10.5
COC1(C2=NCCN2)COc2ccccc2O1 (stereo not given) | -0.3

Going on with the list.
SMILES | Mtb betalactam
C[C@@H]1CN([C@H](C)CO)C(=O)c2cc(NC(=O)Nc3ccc(F)cc3)ccc2O[C@H]1CN(C)C(=O)Nc1ccc(C(F)(F)F)cc1 | -0.6
O=C(CCS(=O)(=O)c1ccccc1)Nc1ccc(N2CCN(Cc3ccccc3)CC2)cc1 | 2.1
COc1ccc(NC(=O)CN2C(=O)NC3(CCCCC3C)C2=O)cc1OC (stereo not given) | -9.3
COc1ccc([N+](=O)[O-])cc1NS(=O)(=O)c1cccc(C(=O)OC2CCOC2=O)c1 (stereo not given) | -8.7
CCCNC(=O)C(Cc1cccc(OC)c1)NC(=O)c1ccc(C#N)cc1 (stereo not given) | -2.3
Cc1ccc(NC(=O)CN(C)C(=O)c2ccc3[nH]c4c(c3c2)CC(C)CC4)cc1 (stereo not given) | -1.9
COc1ccc(OC)c(NC(=O)COC(=O)COc2c(Cl)cc(Cl)c3ccc(C)nc23)c1 | 10.3
O=C(NCCc1ccccc1)c1ccc2c(c1)S(=O)(=O)c1cc(Cl)ccc1C2=O | 8.0
O=C(CN1C(=O)NC2(CCc3ccccc32)C1=O)c1ccc(Br)s1 (stereo not given) | -9.0
CC[C@@H]1CCCCc2ccccc2[C@@H](C(=O)C[C@H](O)CC(C)=O)OC1=O | -8.7
CC(=O)c1ccc(OCCCC(=O)NNC(=O)c2ccccn2)cc1 | 99.3
Cc1ccc(NC(=O)CC(C)c2ccccc2)cc1S(=O)(=O)N1CCOCC1 (stereo not given) | -9.5
CCN(C[C@H]1N[C@@](CC)(C(=O)OC)[C@H]2C(=O)N(C)C(=O)[C@@H]12)C(=O)Nc1ccc(C)cc1 | 3.1
Cc1cc(C)c(S(=O)(=O)N2CCN(C(=O)c3c(C)noc3C)CC2)c(C)c1 | -3.3
COc1ccccc1C(=O)NCCC(=O)Nc1ccc(S(=O)(=O)N2CC(C)CC(C)C2)cc1 (stereo not given) | 3.0
CCN(C(=O)CSc1nnc(-c2ccco2)n1C)c1c(N)n(Cc2ccccc2)c(=O)[nH]c1=O | -2.8
COc1ccc(OC)c(S(=O)(=O)Nc2c(C)nn(C)c2C)c1 | -0.1
O=C(Cn1cnc2ccccc21)Nc1cccc(S(=O)(=O)N2CCCC2)c1 | 2.7
O=C(COc1ccccc1Cl)N1N=C(c2cccs2)CC1c1ccco1 (stereo not given) | 4.3
COc1ccc(S(=O)(=O)N2CCOCC2)cc1NC(=O)CSc1nnc(C2CC2)n1C | -4.1
COc1cc2sc3cc(NCc4ccc5c(c4)OCO5)ccc3c(=O)c2cc1OC | 5.4
C[C@@H](NC(=O)c1[nH]cnc1C(=O)Nc1ccccc1)c1ccccc1 | ?
Cc1ccc(S(=O)(=O)N2CCN(C(=O)Cn3c(=O)cnc4ccccc43)CC2)cc1 | -4.0
O=C(CCNS(=O)(=O)c1cccc(C(F)(F)F)c1)NCc1ccco1 | -6.4
COc1ccc(C(CNC(=O)c2cc3ccccc3o2)N2CCCC2)cc1 (stereo not given) | -1.1

A different layout for part of the listing above:
structure	Mtb betalactam
O=C(COc1ccccc1Cl)N1N=C(c2cccs2)CC1c1ccco1 (stereo not given)	4.3
CC(=O)c1ccc(OCCCC(=O)NNC(=O)c2ccccn2)cc1	99.3

The list continues:
SMILES | Mtb betalactam
COC(=O)C1=C(c2ccccc2OCc2ccccc2)C[C@@H]2CC[C@H]1N2C(=O)NCc1ccc(C(F)(F)F)cc1 | 8.1
Cc1cccc(-n2ccnc2SCC(=O)c2c(N)n(C3CC3)c(=O)[nH]c2=O)c1C | -4.7
Cc1nc(NC(=O)COC(=O)/C=C/c2ccco2)c(Cl)cc1Cl | -0.6
CCN(C(=O)CSc1nccc(=O)[nH]1)C1CCCCC1 | 29.8
Cc1ccc(NS(=O)(=O)c2ccc(Cl)c(N=Nc3c(O)[nH]c(=O)[nH]c3=O)c2)cc1Cl | 1.1
COc1ccc(S(=O)(=O)Nc2ccc3c(c2)C(=O)N([C@H](C)CO)C[C@H](C)[C@@H](CN(C)C(=O)NC2CCCCC2)O3)cc1 | 2.8
COc1ccc(C(=O)c2cn(-c3cccc(Br)c3)nc2C(C)=O)cc1 | -3.2
CNC(=O)c1ccc(NC(=O)CCc2c(C)noc2C)cc1 | 2.0
O=C(c1cccs1)N(Cc1cc2ccccc2[nH]c1=O)CC1CCCO1 (stereo not given) | -2.3
CC(C)(C)OC(=O)NCc1ccc(NC(=O)c2nc[nH]c2C(=O)NCCCCCCNC(=O)c2[nH]cnc2C(=O)Nc2ccc(CNC(=O)OC(C)(C)C)cc2)cc1 | 8.3
CC1CCN(C(=O)CCN2C(=O)/C(=C/c3cccs3)SC2=S)CC1 | 96.1
CCOC(=O)c1c(NC(=O)CN2C(=O)C(=O)N(C(C)C)C2=O)sc(C)c1CC | -2.3
C=CCn1c(SCC(=O)Nc2ccc(OC)cc2)nc2ccccc2c1=O | -3.2
O=c1c(O[C@@H]2O[C@H](CO)[C@@H](O)[C@H](O)[C@H]2O)c(-c2ccc(O)cc2)oc2cc(O)cc(O)c12 | -0.7
COc1ccc(NC(=O)CSc2nncs2)cc1S(=O)(=O)N1CCCCC1 | -7.4
COc1ccc(N2CCN(S(=O)(=O)CC34CCC(CC3=O)C4(C)C)CC2)cc1 (stereo not given) | -3.1
NS(=O)(=O)c1ccc(CNC(=O)CCCSc2ccccc2)cc1 | -5.5
O=C(COC(=O)c1ccc(O)cc1O)NC1CCCCCC1 | -3.3
COc1cc2c(C#CCCCO)c(-c3ccsc3)oc(=O)c2cc1OC | -4.7
Cc1cccc(C(=O)OCC(=O)c2csc(N3CCCCC3)n2)c1[N+](=O)[O-] | -6.7
Cc1ccc(NC(=O)CCCN2C(=O)NC(C)(C)C2=O)cc1 | -3.6
CCCCc1ccc(NC(=O)Cn2c(=O)c(N3CCCCC3)c(N)n(C)c2=O)cc1 | -5.6
CC[C@H](C)[C@@H]1NC(=O)[C@H]([C@@H](C)CC)NC(=O)[C@@H](CC(C)C)NC(=O)[C@H](Cc2ccccc2)NC(=O)[C@H](Cc2ccccc2)NC(=O)[C@@H]2CCCN2C(=O)[C@@H]2CCCN2C(=O)[C@H](C(C)C)NC(=O)[C@H](CC(C)C)NC1=O | 9.1
CC1(c2ccc3c(c2)OCCCO3)NC(=O)N(CC(=O)NCCc2ccccc2)C1=O (stereo not given) | -9.5
COc1ccc(OCC(=O)Nc2ccc3c(c2)CCC3)cc1 | 50.7

(more compounds)
SMILES | Mtb betalactam
CN(Cc1ccco1)C(=O)CN1C(=O)NC2(CCCC2)C1=O | -3.3
CS(=O)(=O)c1ccc(-c2sc3ccccc3c2C#CCCO)cc1 | 23.6
CN(C(=O)c1ccc(NC(=O)Cc2ccc(NC(=O)C3CCN(C(=O)C4CC4)CC3)cc2)cc1)C1CC1 | 0.1
Cc1nc(SCC(=O)N(C)C2(C#N)CCCCC2)c2ccccc2n1 | 3.5
Cc1ccccc1-c1cc(C(=O)NCc2ccco2)nn1CC1CC(c2cccc([N+](=O)[O-])c2)=NO1 (stereo not given) | 8.6
CN(Cc1ccccc1)C(=O)c1ccc(S(=O)(=O)N(C)c2ccccc2)cc1 | 0.6
Cc1ccc(S(=O)(=O)Nc2ccccc2C(=O)N2CCCC2)cc1 | ?

Some of the compounds tested (hit frequency here may not be typical).
